# Beta apoptosis: inhibitors of cytokine-induced beta cell apoptosis, primary screen, luminescence | INS-1E cytokine-induced death, ATP luminescence, 48 h; percent of positive-control rescue, neutral wells zero | protection from apoptosis, % (concentration not given with the values) | 300,000 compounds, 0.8% hits | AID 435005, 2010;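 active = all replicates at 75% or more, or half of them and the mean; inconclusive = half reach 75% but not the mean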;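 note: 0% = cytokine-treated negative control wells and 100% = positive control rescue; higher means more ATP so stronger rescue from cytokine killing; wells of about 40 µL received 100 nL stock; the first replicate is given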
# MLL AF4-AF9 inh: inhibitors of AF4 peptide binding to AF9, primary screen, biochemical, AlphaScreen, biotin-AF4 peptide, FLAG-AF9, single point; Protein AF-9 (Homo sapiens), P42568; inhibition, % at 10 µM; 350,000 compounds, 0.47% hits; AID 651704, 2012;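 active = every replicate reaching a set inhibition limit, whatever the replicate mean, cut at about 25% in these data; inconclusive = mean inhibition reaches that limit but some replicates miss it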;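 note: 0% = plate neutral control median and 100% = total signal loss; the record names both 10 and 1 µM as test concentration; the first replicate is given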
# Target sequence (P42568 whole entry, looked up): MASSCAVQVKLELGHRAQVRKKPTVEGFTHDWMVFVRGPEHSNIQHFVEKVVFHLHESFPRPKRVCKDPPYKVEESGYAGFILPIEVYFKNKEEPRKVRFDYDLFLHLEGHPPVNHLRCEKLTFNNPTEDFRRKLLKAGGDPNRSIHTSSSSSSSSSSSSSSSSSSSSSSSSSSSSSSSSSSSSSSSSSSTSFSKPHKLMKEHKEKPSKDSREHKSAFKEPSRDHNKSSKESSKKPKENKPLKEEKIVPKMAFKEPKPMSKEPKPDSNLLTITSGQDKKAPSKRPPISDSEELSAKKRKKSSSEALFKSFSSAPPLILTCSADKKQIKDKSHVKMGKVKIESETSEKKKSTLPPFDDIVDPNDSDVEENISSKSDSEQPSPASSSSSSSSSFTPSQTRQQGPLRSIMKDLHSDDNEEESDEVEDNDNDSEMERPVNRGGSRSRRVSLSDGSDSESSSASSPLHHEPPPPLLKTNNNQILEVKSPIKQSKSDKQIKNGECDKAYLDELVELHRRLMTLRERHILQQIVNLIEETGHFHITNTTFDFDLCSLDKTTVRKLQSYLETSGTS
# FGF22 binding: binders of human FGF22 protein, primary screen, FGF22 synaptogenesis inhibitor project, biophysical, thermal shift, single point | AID 651658, 2012 | 340,000 compounds, 1.5% hits | Fibroblast growth factor 22 (Homo sapiens), Q9HCT0 | recombinant FGF22 thermal shift, SYPRO orange fluorescence; percent of sucrose octasulfate shift, DMSO zero | calls only at 9.99 µM;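 active = melting point raised past a set limit in the mean and every replicate; inconclusive = no clear call; three in four hits are not shown here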
# Target sequence (Q9HCT0 whole entry, looked up): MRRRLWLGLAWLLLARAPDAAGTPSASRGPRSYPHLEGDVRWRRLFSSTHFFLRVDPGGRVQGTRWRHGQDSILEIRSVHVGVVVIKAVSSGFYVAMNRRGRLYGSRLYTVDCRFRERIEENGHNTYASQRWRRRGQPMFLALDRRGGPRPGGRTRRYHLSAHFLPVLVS
# Calb FLC: C. albicans growth inhibition with fluconazole, primary screen, CaCi-2 strain, Alamar Blue fluorescence. growth inhibition, % (no concentration beside the values). 300,000 compounds, 0.57% hits. C. albicans CaCi-2 (fluconazole-resistant clinical isolate) + fluconazole, 48 h. AID 1979, 2009;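 active = most replicates above 75%; inconclusive = exactly half above 75%; inactive = most below 75%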;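 note: all wells also contain fluconazole at 8 µg/ml as a sub-toxic cotreatment; 0% = median of DMSO wells and 100% = median of geldanamycin control wells; wells of about 8 µL received 7.5 nL stock; the first replicate is given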
# RanGTP-Imp inh: inhibitors of RanGTP-importin-beta interaction, primary screen, biochemical, FRET, CFP-Ran, YFP-importin-beta, homogeneous. Ran GTPase (GTP-bound) - importin-beta complex. cell-free CFP-Ran/YFP-importin-beta FRET ratio. inhibition, % (test concentration not listed). 300,000 compounds, 1.1% hits. AID 2216, 2009;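 active = most replicates above 15%; inconclusive = exactly half above 15%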;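 note: 0% = DMSO wells and 100% = Ran loaded with GDP instead of GTP; wells of about 40 µL received 100 nL stock; the first replicate is given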
# Ecoli rRNA inh: reduced GFP signal of wild-type E. coli, primary screen, bacterial rRNA inhibitor project, GFP/RFP fluorescence, OD600, single point; E. coli WT GFP vs humanized-ribosome RFP mutants, 24 h; hits give low values; DMSO median 0, no signal -100; GFP signal change (wild-type ribosome), % (test concentration not listed); 350,000 compounds, 1.6% hits; AID 720706, 2013;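 active = significant combined selectivity score with lowered wild-type GFP, culture density cut under 30%, mutant RFP and density less affected; inactive = any of these conditions unmet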; note: one replicate is shown; some compounds called inactive have numbers as strong as hits
# ALR H2O2 inh: inhibitors of human ALR sulfhydryl oxidase, primary screen, biochemical, H2O2 detection, HRP-luminol luminescence, single point; 290,000 compounds, 3.8% hits; AID 485317, 2010; inhibition, % (concentration not given with the values); purified ALR, DTT oxidation;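 active = mean and each replicate at 75% or more; inconclusive = only one of the two met; inactive = neither met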;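 note: stock transfer was 7.5 nL into about 7.5 µL; 0% = neutral wells and 100% = wells with inactivated enzyme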
# Target sequence (P55789 whole entry, looked up): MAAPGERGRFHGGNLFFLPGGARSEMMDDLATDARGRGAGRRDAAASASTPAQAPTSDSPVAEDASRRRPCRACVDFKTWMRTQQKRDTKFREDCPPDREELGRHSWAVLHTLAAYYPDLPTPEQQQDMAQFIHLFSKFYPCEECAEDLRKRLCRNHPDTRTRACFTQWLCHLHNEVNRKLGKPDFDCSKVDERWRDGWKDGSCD
# T cruzi repl: inhibitors of intracellular T. cruzi growth, primary screen, luminescence, NIH3T3 host cells; T. cruzi beta-gal in NIH3T3, 90 h; inhibition, % (test concentration not listed); 300,000 compounds, 1.4% hits;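 active = mean inhibition across valid replicates above about 55%, limit read from the data; inconclusive = mean below that limit but half or more replicates reach it; inactive = mean below it, under half of replicates reach it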;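 note: signal also drops with host cell toxicity which is not excluded here; 0% = plate median of DMSO wells and 100% = zero luminescence signal; higher percent means less beta-gal luminescence so fewer parasites; stock transfer was 50 nL into about 50 µL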
# Ecoli rRNA inh OD600: further read-out of Ecoli rRNA inh, marked with its call; OD600 change, %; measured here: OD600 growth;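 optical density of the mix in the first replicate; 0 = DMSO median and -100 = no signal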
# Ecoli rRNA inh RFP: second read-out of Ecoli rRNA inh, no call of its own (marks repeat the call); RFP signal change, %; measured here: RFP humanized mutant strains;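 first replicate; 0 = DMSO median and -100 = no signal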
# * hit, by the source's call; i = inactive; ? = inconclusive; . = not tested or not shown; & = joins results of further samples; ! = a repeat was not active.
# The first 4 compounds, to show the layout:
Structure	Beta apoptosis	MLL AF4-AF9 inh	FGF22 binding	Calb FLC	RanGTP-Imp inh	Ecoli rRNA inh	Ecoli rRNA inh OD600	Ecoli rRNA inh RFP	ALR H2O2 inh	T cruzi repl
CSc1ccccc1C(=O)N1CCCC(CCC(=O)NCc2ccc(F)c(F)c2)C1 (stereo not drawn)	5	-1.5	i	3	-1.5	-11	-4	-0.9	2	11
C=C(C)C(=O)N1CC2(CC(c3cccc(NC(=O)/C=C\C=C/C)c3)=NO2)C[C@H]1C(N)=O (stereo partly drawn)	-3	-10	i	0	5.2	13	12	4.1	1	-16
Cc1nc(C)c(NC(=O)N2CCc3ccccc32)cc1NC(=O)N1CCc2ccccc21	-7	.	.	3	5.1	.	.	.	3	.
CC(C)[C@H](NC(=O)N1CC(=O)Nc2ccccc21)C(=O)N[C@H](Cc1c[nH]c2ccccc12)C(=O)O	-8	-1.4	i	-3	?	13	7	-0.3	-4	-15

# The list itself (from the top)
Structure	Beta apoptosis	MLL AF4-AF9 inh	FGF22 binding	Calb FLC	RanGTP-Imp inh	Ecoli rRNA inh	Ecoli rRNA inh OD600	Ecoli rRNA inh RFP	ALR H2O2 inh	T cruzi repl
CSc1ccccc1C(=O)N1CCCC(CCC(=O)NCc2ccc(F)c(F)c2)C1 (stereo not drawn)	5	-1.5	i	3	-1.5	-11	-4	-0.9	2	11
C=C(C)C(=O)N1CC2(CC(c3cccc(NC(=O)/C=C\C=C/C)c3)=NO2)C[C@H]1C(N)=O (stereo partly drawn)	-3	-10	i	0	5.2	13	12	4.1	1	-16
Cc1nc(C)c(NC(=O)N2CCc3ccccc32)cc1NC(=O)N1CCc2ccccc21	-7	.	.	3	5.1	.	.	.	3	.
CC(C)[C@H](NC(=O)N1CC(=O)Nc2ccccc21)C(=O)N[C@H](Cc1c[nH]c2ccccc12)C(=O)O	-8	-1.4	i	-3	?	13	7	-0.3	-4	-15
CCOc1ccc(C(=O)CC(=O)C(=O)NCCc2ccc(OC)c(OC)c2)cc1	1	11	i	-30	-3.6	-1	-15	57	9	14
O=C(COc1ccccc1[N+](=O)[O-])N1CCN(c2ccccn2)CC1	-5	-14	i	4	-2.2	-1	3	-1.7	5	2
CN1CCN(c2nc(-c3ccccc3)nc3c2oc2ccccc23)CC1	25	.	.	9	0.1	.	.	.	-5	16
CNc1oc(Cc2cccc3ccccc23)nc1C#N	-2	.	.	-1	7.5	.	.	.	-5	-2
CCS(=O)(=O)C1=NN2C(=N)/C(=C\c3ccc(OC(=O)c4ccco4)c(Br)c3)C(=O)N=C2S1	-8	.	.	17	0.1	.	.	.	34	-9
CCNC(=O)/C(C#N)=C/c1c(N2CCOCC2)nc2ccccn2c1=O	2	-1.5	i	7	9.0	15	-1	0.6	-5	4
Cc1ccc(N2C(=O)CSC2c2cccnc2)cc1F (stereo not drawn)	1	.	.	-9	-1.8	.	.	.	100*	42
CCc1cc(C=NC2CCCCC2)c(O)s1	0	.	.	-13	3.4	.	.	.	27	2
CC(C)CCN1CCN(Cc2ccoc2)CC1CCO (stereo not drawn)	-1	-3.9	i	-1	-3.2	8	7	0.7	.	-1
COc1ccccc1C(=O)NNC(=O)c1ccc(Cl)cc1	1	-1.6	i	?	4.4	10	21	0.7	-2	9
CCC(Oc1ccccc1F)C(=O)NCCN1CCOCC1 (stereo not drawn)	1	0.8	i	-9	0.1	3	3	1.1	2	-3
CN1C(=O)CC(Sc2ncccc2C(=O)O)C1=O (stereo not drawn)	-8	.	.	-7	?	.	.	.	2	-19
Cc1ccccc1OCc1nnc(SCC(=O)Nc2ccc(N3CCOCC3)cc2)n1C	5	-3.5	i	-10	3.9	-1	1	-1.3	-2	-7
CC(C)CCN1C(Nc2ccccc2)=NC[C@@H]1Cc1ccccc1	1	1.5	i	-27	2.7	1	-6	0.6	-1	-2
O=S(=O)(NCC(c1ccc2c(c1)OCO2)N1CCOCC1)c1ccccc1 (stereo not drawn)	-1	-0.2	i	3	?	6	0	0.8	-16	-2
CCOC(=O)c1nnn(-c2nonc2N)c1COc1ccccc1	-7	.	.	11	-3.1	.	.	.	2	9

# More results follow:
Structure	Beta apoptosis	MLL AF4-AF9 inh	FGF22 binding	Calb FLC	RanGTP-Imp inh	Ecoli rRNA inh	Ecoli rRNA inh OD600	Ecoli rRNA inh RFP	ALR H2O2 inh	T cruzi repl
CCNS(=O)(=O)c1ccc(-c2ccc(-n3cnnn3)cc2)cc1	-2	-1.6	i	-17	0.6	13	12	-2.4	-4	9
COc1cc(CC(=O)NCc2ccc3c(c2)OCO3)cc(OC)c1OC	3	.	.	-5	?	.	.	.	-24	-14
Cc1ccc(NC2CCCN(C(=O)CCn3nccc3C)C2)cc1C (stereo not drawn)	7	1.0	i	11	-8.3	6	2	3.7	99*	-8
COc1cc(/C=C(\C#N)C(=O)NC2CCCCC2C)ccc1OS(=O)(=O)c1ccc(C)cc1 (stereo not drawn)	18	.	.	-4	2.6	.	.	.	2	46
CCOC(=O)C1CCN(C(=O)COc2cccc3ccccc23)CC1	-2	-2.0	i	-8	2.9	-8	-18	-1.4	.	-1
O=S(=O)(c1ccccc1)N1CCc2ccccc21	-8	-4.3	i	-2	-3.6	3	1	1.3	17	-4
C(=C/c1nccc2c1[nH]c1ccccc12)/c1ccc2c(c1)OCO2	.	-14	i	2	120*	-37*	-3.7*	-14*	.	43
COc1ccc(CCC(=O)Nc2nc3c(s2)CN(C)CC3)cc1OC	3	.	.	0	2.2	.	.	.	-11	3
Cc1cccc(N(C(=O)c2csnn2)C(C(=O)NC(C)(C)C)c2ccncc2)c1 (stereo not drawn)	3	3.1	i	-2	-7.0	6	-1	12	-2	-12
O=C(COC(=O)CCc1nc2ccccc2n1-c1ccccc1)Nc1cccc(Cl)c1	-8	.	.	-5	-1.5	.	.	.	-7	14
COc1ccc(CCNC(=O)CCS(=O)(=O)c2ccc3c(c2)CCN3C(C)=O)cc1OC	-6	.	.	2	-0.7	.	.	.	-3	6
O=C(NCCN1CCOCC1)c1csc2c1CCCCC2	-8	0.5	i	-4	4.9	10	4	-1.1	-30	-10
COc1cccc(NC(=O)COC(=O)C2=NN(c3ccccc3)C(=O)CC2)c1	1	2.1	i	.	.	4	5	2.2	-5	.
O=C(Nc1nc(-c2ccccn2)cs1)c1ccc(S(=O)(=O)N2CCCCC2)cc1	83*	.	.	35	0.1	.	.	.	0	54
CC(=O)Nc1ccc(NC(=O)CSc2nnc(NC(=O)C3CC(=O)N(c4ccc(F)cc4)C3)s2)cc1 (stereo not drawn)	-3	-0.7	i	-3	-1.3	9	10	-0.1	-49	2
CCN(CC)CCN1C(=O)Cn2c(C)c(C)c3cccc1c32	-1&-1	7.9&8.8	i	?	-1.1&-36	-1&12	3&11	-4.5&-6.1	7&26	69*!
O=C(C1CCCO1)N(c1ccc(F)cc1)C1C=CS(=O)(=O)C1 (stereo not drawn)	3	0.1	i	10	-3.0	6	4	-1.4	.	10
Cc1ccc(C)c(OCC(=O)NCC(c2ccco2)N2CCCCC2)c1 (stereo not drawn)	-2	1.8	i	6	-5.0	1	1	-0.2	1	8
COc1cc(NC(=O)c2sc3nc(C)nc(N4CCOCC4)c3c2C)cc(OC)c1OC	5	5.2	i	-1	-2.9	-14	-15	-2.1	-5	23
N=C1C(c2ccccc2)=C(O)CN1CCCO	1	1.7	i	-8	0.4	.	.	.	3	2

# Printed as active in RanGTP-Imp inh, among the entries above:
compound | MLL AF4-AF9 inh | RanGTP-Imp inh | Ecoli rRNA inh | Ecoli rRNA inh OD600 | Ecoli rRNA inh RFP | ALR H2O2 inh
C(=C/c1nccc2c1[nH]c1ccccc12)/c1ccc2c(c1)OCO2 | -14 | 120* | -37* | -3.7* | -14* | .

# The list goes on.
Structure	Beta apoptosis	MLL AF4-AF9 inh	FGF22 binding	Calb FLC	RanGTP-Imp inh	Ecoli rRNA inh	Ecoli rRNA inh OD600	Ecoli rRNA inh RFP	ALR H2O2 inh	T cruzi repl
CCn1c(SCC(=O)NCc2cccs2)nc2c1c(=O)n(C)c(=O)n2C	0	.	.	3	-3.8	.	.	.	-20	-20
COc1cccc(CNC(=O)c2cccc(NC3=NC4CS(=O)(=O)CC4S3)c2)c1 (stereo not drawn)	4	8.9	i	-5	3.9	3	-4	0.3	16	-12
CSc1cccc(NC(=O)CSc2nc3ccccc3o2)c1	2	-42	i	-2	3.5	-25*	-15*	5.9*	-46	-22
CCOc1ccc(C2=Nn3c(nnc3-c3ccccn3)SC2)cc1	0	.	.	-6	0.1	.	.	.	-6	-5
CNc1nc(-c2ccccc2)cc(C)c1S(C)(=O)=O	1	-18	i	-15	2.2	-29	-35	-2.3	-8	0
COc1ccc(C(=O)Nc2ccc(NC(C)=O)cc2)cc1S(=O)(=O)N(C)Cc1ccccc1	6	4.3	i	.	.	3	5	2.1	-4	.
O=C(Nc1nnc(SCc2ccccn2)s1)C1CC(=O)N(c2ccccc2)C1 (stereo not drawn)	1	.	.	5	0.3	.	.	.	.	3
CCCN(C(=O)c1ccc(OCC(C)C)cc1)c1c(N)n(Cc2ccccc2)c(=O)[nH]c1=O	-4	-15	i	14	-1.5	1	8	1.0	11	-6
COC(=O)CCCC1=CC2=CC(=O)C(C)(OC(=O)c3cccs3)C(=O)C2=CN1c1ccc(OC)cc1 (stereo not drawn)	-13	0.1	i	15	-0.9	7	6	14	.	-1
COc1ccc(C(=O)Nc2cccc3c2C(=O)NC3=O)cc1S(=O)(=O)N1CCOCC1	.	.	.	4	8.1	.	.	.	-11	4
COc1cc(OC)cc(C(=O)N[C@H](C(=O)OCC(N)=O)C(C)C)c1	-6	0.6	i	-9	0.2	13	18	7.0	-11	-17
CCN(CC)CCOC(=O)c1ccc(NC(=O)C2(c3ccccc3)CCCC2)cc1	6	.	.	-4	2.0	.	.	.	2	15
CCn1cc(C(=O)OCc2ccc(F)cc2)c(=O)c2ccc(C)nc21	0	.	.	11	5.4	.	.	.	1	19
CC(=O)c1ccc(NC(=O)c2ccc3nc(-c4ccco4)c(-c4ccco4)nc3c2)cc1	2	.	.	-6	35*	.	.	.	-9	-5
COCCNC(=O)Cn1nc(-c2ccccc2OC)ccc1=O	-3	.	.	-4	-2.5	.	.	.	-10	-6
O=C(C1COc2ccccc2O1)N1CCOCC1 (stereo not drawn)	-1	.	.	-3	1.1	.	.	.	3	-13
COc1ccc(N2CCN(C3CCCN(C(=O)C4=C(C)OCCO4)C3)CC2)cc1 (stereo not drawn)	-2	-5.2	i	-10	-6.1	5	9	0.3	49	-4

# Assay outcomes as filed in PubChem BioAssay.

# These rows are one share of the data; the hit share may differ from the screen's.
